Assay outcomes from PubChem BioAssay.
2A Renilla = FMDV 2A StopGo reporter, Renilla signal; HEK cells with a luciferase reporter of 2A StopGo recoding; Potency, µM (highest dose often 57.5 µM), for the others: top-dose signal change, negative = less light; 120,000 compounds, 0.32% hits; active means well fitted falling curve with a large enough effect; inconclusive means small, poorly fitted or top-dose-only effect; inactive means no such curve, though single readings can be large or run the other way; note: nearly all actives have a fitted effect of over 55% in size; overnight with compound
StopGo FLuc = FMDV 2A StopGo reporter, firefly signal; HEK cells with a luciferase reporter of 2A StopGo recoding; Potency, µM (top dose mostly 57.5 µM), without a hit: at the top dose signal change, negative = less light; 120,000 compounds, 0.23% hits; AID 1745856; active = well fitted falling curve with a large enough effect; inconclusive = small, poorly fitted or top-dose-only effect; inactive = no such curve, though single readings can be large or run the other way; note: nearly all actives have a fitted effect of over 60% in size; overnight with compound
* marks the source's active call; other numbers are inactive results; ? = inconclusive; [ ] = dose if it differs, or a comment. % is set by controls: 0 for no effect and ±100 for the full control effect; potency is the fitted concentration of half-maximal effect. These rows are one share of the data, so the mix of outcomes need not match the whole.

SMILES | 2A Renilla | StopGo FLuc
CCC(C(=O)NN1CCCCC1)c1ccccc1 (configuration not stated) | 9% | 8%
COC(=O)c1c(-c2cccs2)csc1NC(=O)c1ccc(C(C)C)cc1 | -3% | -14%
COc1ccc(CNC(=O)/C(C)=C/c2ccccc2)cc1 | -3% | 0%
COc1cc(NC(=O)CCc2ncc(-c3ccc(C)cc3)o2)cc(OC)c1 | -6% | 22%
CCN(CC)CCn1c(=N)n(CC(O)COc2ccccc2C)c2ccccc21 (configuration not stated) | ? | -18%
CCCCCCCCCOc1ccc(C#N)c(O)c1 | ? | ?
CCCCC(CC)CNC(=O)CN1C(=O)CSc2ccc(S(=O)(=O)N3CCOCC3)cc21 (configuration not stated) | -5% | -15%
N#Cc1ccc(C(=O)NCCc2ccco2)cc1 | -1% | 34%[activator]
Cc1ccc2c(c1)-c1ncc(C(=O)c3ccccc3O)cc1CO2 | 25% | 112%[activator]
COc1ccc(C2(CNC(=O)C(=O)Nc3ccc(F)cc3)CCCC2)cc1OC | -5% | -15%
COc1cc(C(=O)N2CCN(C(=O)COc3cccc(C)c3)CC2)cc(OC)c1OC | -3% | -14%
CC(C)CC(=O)Nc1ccc2nc(SCC(=O)N3CCc4ccccc43)sc2c1 | ? | 18%
CC(Oc1cccc(Cl)c1)C(=O)N1CCc2ccccc21 (configuration not stated) | 11% | 52%[activator]
Cc1c(CNCCCc2ccccc2)c(C(=O)O)c(C)n1Cc1ccc(Cl)cc1 | 15% | -26%
Cc1ccc2c(c1)c1c(c(=O)n(-c3ccccc3)c(=O)n1CC(=O)c1ccc(Cl)cc1)n2C | -10% | 6%
Cn1ccnc1SCC(=O)NC1(C#N)CCCCCC1 | 8% | 11%
CCOc1ccc(N(C(=O)c2ccc(C)cc2)S(=O)(=O)c2ccc3c(c2)n(C)c(=O)n3C)cc1 | 31%[activator] | -2%
COc1cc(CNC(=O)c2ccc3cn[nH]c3c2)cc(OC)c1OC | 11% | 23%
Cc1cccc(C(=O)Nc2ccccc2OCc2cc(=O)n3cc(C)ccc3n2)c1 | -13% | -2%
CC(C)(C)C(=O)N1N=C(c2ccsc2)CC1c1ccc2nccnc2c1 (configuration not stated) | 2% | -3%
COc1ccc(S(=O)(=O)N2CCN(c3ccccc3)CC2)cc1-c1noc(C(C)(C)C)n1 | 10% | 0%
CN(CC(=O)Nc1ccccc1OC(F)(F)F)S(=O)(=O)c1ccc2ccccc2c1 | 3% | -6%
Cn1nnnc1NCc1ccc(-c2ccc(Br)cc2)o1 | 283%[activator] | 5%
Cc1cccc(Cn2c(=O)n(CC3CCC(C(=O)N4CCC(C)CC4)CC3)c(=O)c3sccc32)c1 (configuration not stated) | -11% | -14%
Cc1ccc(/C=C/c2onc(C)c2S(=O)(=O)N2CCC(C(=O)N3CCN(c4cccc(C)c4)C(C)C3)CC2)cc1 (configuration not stated) | -4% | -5%
Cc1cc(C)cc(C(=O)NC23CC4CC(CC(C4)C2)C3)c1 | 7% | -3%
Cc1ccc(N(C)S(=O)(=O)c2ccc(-c3coc(C)n3)cc2)cc1 | 2% | 11%
Cc1ccc2oc(-c3ccccc3F)cc(=O)c2c1 | 214%[activator] | 88%[activator]
Cc1noc(CN2CCN(c3cccc(F)c3C#N)CC2)n1 | -2% | -2%
Cc1nc(N2CCS(=O)CC2)c2c(-c3ccccc3)csc2n1 | -4% | -6%
CC1CCCC(C)N1C(=O)CSc1nc2cc(Cl)ccc2s1 (configuration not stated) | 4% | 0%
COc1cc(C(=O)Nc2cccc(O)c2)c2ccccc2n1 | -3% | 8%
COc1cccc(CNC(=O)c2sc3nc4n(c(=O)c3c2C)CCC4)c1 | 18% | 13%
COC(=O)c1ccc(C)c(NC(=O)CN2c3ccc(C(C)C)cc3-c3ccccc3S2(=O)=O)c1 | 96%[activator] | 5%
CCCOc1ccccc1NC(=O)Cc1nn(C)c(=O)c2ccccc12 | ? | ?
Cc1cccc(S(=O)(=O)c2cn(Cc3ccccc3)c3cc(N4CCCC(C)C4)c(F)cc3c2=O)c1 (configuration not stated) | 0% | -15%

16 structures out of the list, ordered by SMILES length, descending:
SMILES | 2A Renilla | StopGo FLuc
Cc1ccc(/C=C/c2onc(C)c2S(=O)(=O)N2CCC(C(=O)N3CCN(c4cccc(C)c4)C(C)C3)CC2)cc1 (configuration not stated) | -4% | -5%
Cc1cccc(S(=O)(=O)c2cn(Cc3ccccc3)c3cc(N4CCCC(C)C4)c(F)cc3c2=O)c1 (configuration not stated) | 0% | -15%
Cc1cccc(Cn2c(=O)n(CC3CCC(C(=O)N4CCC(C)CC4)CC3)c(=O)c3sccc32)c1 (configuration not stated) | -11% | -14%
CN(CC(=O)Nc1ccccc1OC(F)(F)F)S(=O)(=O)c1ccc2ccccc2c1 | 3% | -6%
Cc1cccc(C(=O)Nc2ccccc2OCc2cc(=O)n3cc(C)ccc3n2)c1 | -13% | -2%
Cc1ccc(N(C)S(=O)(=O)c2ccc(-c3coc(C)n3)cc2)cc1 | 2% | 11%
CC(C)(C)C(=O)N1N=C(c2ccsc2)CC1c1ccc2nccnc2c1 (configuration not stated) | 2% | -3%
CCCOc1ccccc1NC(=O)Cc1nn(C)c(=O)c2ccccc12 | ? | ?
Cc1nc(N2CCS(=O)CC2)c2c(-c3ccccc3)csc2n1 | -4% | -6%
CC1CCCC(C)N1C(=O)CSc1nc2cc(Cl)ccc2s1 (configuration not stated) | 4% | 0%
CC(Oc1cccc(Cl)c1)C(=O)N1CCc2ccccc21 (configuration not stated) | 11% | 52%[activator]
Cn1nnnc1NCc1ccc(-c2ccc(Br)cc2)o1 | 283%[activator] | 5%
Cc1ccc2oc(-c3ccccc3F)cc(=O)c2c1 | 214%[activator] | 88%[activator]
Cn1ccnc1SCC(=O)NC1(C#N)CCCCCC1 | 8% | 11%
CCC(C(=O)NN1CCCCC1)c1ccccc1 (configuration not stated) | 9% | 8%
CCCCCCCCCOc1ccc(C#N)c(O)c1 | ? | ?

Continuation.
SMILES | 2A Renilla | StopGo FLuc
CCOC(=O)c1ccc(NC(=O)C2CCCN(c3ncnc4onc(C)c34)C2)cc1 (configuration not stated) | -6% | -3%
CN(CC(=O)NC(=O)NC1CCCC1)Cc1ccc(C(F)(F)F)cc1 | -7% | 18%
Cc1ccc(C)c(-n2nc(C)cc2NC(=O)CN(C)Cc2ccccc2)c1 | 3% | -6%
Cc1ccccc1Cn1c(=O)n(CCc2ccccc2)c(=O)c2sc3ccccc3c21 | 2% | 148%[activator]
CCOc1ccc(C(=O)Nc2sc(C)c(CC)c2C#N)cc1 | 9% | 127%[activator]
O=C1CCCN1c1cccc(-c2csc(-c3cccnc3)n2)c1 | 92%[activator] | 423%[activator]
COc1ccc(CNC(=O)N(C)CCOc2ccccc2C)cc1OC | -9% | -7%
N#Cc1cccc(C(=O)OC(c2ccccc2)c2ccccn2)c1 (configuration not stated) | -1% | -10%
O=C(CCc1c[nH]c2ccccc12)Nc1ccc(Cl)c(Cl)c1 | 1% | 49%[activator]
Oc1ccccc1-c1nc(/C=C/c2ccccc2Cl)no1 | 3% | 21%
COc1ccc2ccccc2c1/C=C(/C#N)C(=O)Nc1ccccc1C(F)(F)F | 10% | -2%
COc1cc(NC2c3ccccc3C(=O)N2c2cccnc2)cc(OC)c1OC (configuration not stated) | 18% | -1%
COc1ccc(NC(=O)c2cc(S(=O)(=O)N3CCCCC3)c[nH]2)cc1OC | 15% | 13%
C=CCOc1ccc(NC(=O)c2ccc(OC)cc2)cc1 | 19% | 0%
O=C(NC1CC(=O)N(c2cccc(F)c2)C1)c1ccc(S(=O)(=O)N2CCOCC2)cc1 (configuration not stated) | -5% | -7%
COC(=O)c1sccc1S(=O)(=O)Oc1ccc2c(C(F)(F)F)cc(=O)oc2c1 | -4%[1.06 µM] | 15%
Cc1cc(C)c2c(=O)cc(C(=O)Nc3ccccc3C)oc2c1 | -12% | -4%
S=C(NCCc1c[nH]c2ccccc12)Nc1ccc(Cl)cc1 | -52% | 0%
Cc1cc(C)c(NC(=O)Cn2c(=O)n(Cc3ccco3)c(=O)c3ccc(C(=O)NC4CCCC4)cc32)c(C)c1 | -6% | -23%
CCOc1ccc2c(c1)SCC(=O)N2 | 14% | 32%[activator]
CC(NCc1ccc(C#N)cc1)c1ccc(F)cc1F (configuration not stated) | -8% | -3%
Cn1c(=O)oc2cc(S(=O)(=O)N3CCCC(C(=O)NCc4ccc(F)cc4)C3)ccc21 (configuration not stated) | 23% | 39%[activator]
CC(=O)Nc1cccc(C(C)NC(=O)Nc2cc(Cl)c(Cl)cc2Cl)c1 (configuration not stated) | 10% | 44%[activator]
CCc1cc2c(-c3ccccc3)cc(=O)oc2c2c1OCN(Cc1ccc(C)cc1)C2 | -10% | -19%
O=C(c1cnn(-c2ccc(F)cc2)c1-n1cccc1)N1CCC2(CC1)OCCO2 | 28% | 5%
CCc1ccccc1NCC(=O)Nc1ccc(C#N)cc1 | 205%[activator] | 21%
O=C(CCNS(=O)(=O)c1ccc2c(c1)CCCC(=O)N2)NCc1ccccc1Cl | 24% | 12%
CCSc1ncc(Cl)c(C(=O)Nc2nnc(CC(C)C)s2)n1 | -13% | -4%
Cn1c(-c2ccccc2)csc1=N | 0% | 3%
O=C(NCc1ccc(F)cc1)N(Cc1ccc(Cl)c(Cl)c1)Cc1ccccn1 | 20% | -8%
CCCCCCC(=O)N/N=C/c1ccc(C(C)C)cc1 | 12% | 30%[activator]
COc1ccccc1NC(=O)c1cn(Cc2ccccc2)c2ccccc12 | 23% | 73%[activator]
CC(=O)NCCc1ccccc1C | -6% | -10%
Cc1c(C(=O)Nc2cccc(Cl)c2)oc2ccc(S(=O)(=O)N3CCCCCC3)cc12 | -10% | -16%
CCOC(=O)CCN(C)Cc1ccc(OC)c(OC)c1 | 19% | 24%
CCOc1ccc(NC(=O)c2cc3c(n(-c4ccc(OC)cc4)c2=O)CC(C)(C)CC3=O)cc1 | -1% | -13%
CC(C)c1nc2oc3c(NCCN(C)C)ncnc3c2c2c1COC(C)(C)C2 | -11% | -12%
COc1ccc(/C(=N/OC(=O)c2ccc(Cl)cc2)c2nccc3cc(OC)c(OC)cc23)cc1OC | 3% | 22%
COc1ccc(NC(=O)c2c(NCc3ccc(OC)c(OC)c3OC)sc3c2CCC3)c(OC)c1 | 3% | 0%
COc1ccc(Cl)cc1NC(=O)c1sc2nc3c(cc2c1N)CN(C)CC3 | -6% | -5%
COc1ccc(-c2c(C)c3cc(OC(=O)N4CCOCC4)ccc3oc2=O)cc1OC | -10% | -28%
CNC(=O)c1cccc(NC(=O)CSCc2csc(-c3ccccc3)n2)c1 | ? | ?
O=C(NC1CCCC1)c1ccc2c(c1)N(Cc1ccccc1)C(=O)c1ccccc1S2 | ? | 25µM*
O=C(CCc1nc(CN2CCN(S(=O)(=O)c3ccc(Br)cc3)CC2)no1)N1CCCCC1 | ? | 10%
CCN1CCCC1CNC(=O)c1c(C)nn(-c2ccc(F)cc2)c1-n1cccc1 (configuration not stated) | -10% | -10%
Cc1[nH]c2ccc(C(=O)N3CCC(C(=O)N4CCCCCC4)CC3)cc2c1C | 5% | 9%
Cc1ccc(-c2cnc(SCC(=O)Nc3ccc(F)c(C)c3)o2)cc1C | -7% | 69%[activator]
N#Cc1ccc(NC(=O)COC(=O)c2ccc3ccccc3n2)cc1 | -7% | 6%
C=CCNC(=O)c1nc(Cc2c[nH]c3ccccc23)no1 | -9% | 15%
COc1ccc2c(C)c(CCC(=O)NCc3ccccc3)c(=O)oc2c1 | 10% | 6%
O=C(COc1ccccc1)N1CCC(c2nc3ccccc3o2)CC1 | 15% | 28%
CCOc1ccccc1CNC(=O)c1cnc2sc(N(CC)CC)nn2c1=O | 21% | 14%
NC(=O)c1cc(S(=O)(=O)N2CCCC2)ccc1OCC(=O)Nc1ccc(Oc2ccccc2)cc1 | -6% | 21%
Cc1nc2ccccc2nc1C | 5% | -8%
COc1ccc(-c2noc(CN(C)S(=O)(=O)c3ccc(F)cc3)n2)cc1 | -4% | -11%
CCCN(CCC)C(=O)c1ccc2nc(C)c(C)nc2c1 | -2% | 5%
Cc1cc(C)c(NC(=O)c2cc(=O)c3ccccc3o2)c(C)c1 | -30% | -18%
Cc1ccc(C(=O)NC(=S)NNC(=O)c2ccc(NC(=O)c3ccccc3)cc2)cc1 | 0% | 81%[activator]
C[N+](C)(CC#CCCCCCCC#CC[N+](C)(C)Cc1ccccc1)Cc1ccccc1 | -22% | 169%[activator]
CCc1ccc(OCC(=O)Nc2nc(-c3ccc(S(=O)(=O)N4CCOCC4)cc3)cs2)cc1 | -2% | 2%
(further entries)
SMILES | 2A Renilla | StopGo FLuc
Cc1ccccc1CNC(=O)c1ccc2[nH]c(C)c(C)c2c1 | 0% | 14%
CCc1ccccc1NC(=O)N1CCC2(CC1)Oc1ccccc1C(=O)N2Cc1ccccc1F | -10% | 17%
COc1ccc(/C(=N/OC(=O)c2cccc(F)c2)c2nccc3cc(OC)c(OC)cc23)cc1OC | 19% | 14%
COC(=O)c1ccccc1NC(=O)c1ccc(-c2nc(COc3ccccc3)c(C)o2)cc1 | 14% | 20%
CCOC(=O)C1CCN(c2nc3ccccc3n3c(=O)n(CC(=O)Nc4ccccc4C#N)nc23)CC1 | -7% | 11%
COC(=O)c1cc2oc3ccccc3c2n1Cc1nc(-c2ccc(Cl)cc2)oc1C | 11% | 6%
Cc1ccc(C)n1-c1nc2ccc(C(=O)Nc3ccc(C(N)=O)cc3)cc2s1 | -1% | 36%[activator]
CCN(CC)CCCNc1oc(-c2ccco2)nc1S(=O)(=O)c1ccc2c(c1)OCCO2 | 25% | 11%
CC(C)OCCCNC(=O)c1ccc2c(=O)n(CCc3ccccc3)c(=O)[nH]c2c1 | -9% | -13%
Cc1cc(C(F)(F)F)c(C#N)c(SCc2cccc(C(F)(F)F)c2)n1 | -3% | -10%
